Assay outcomes: PubChem BioAssay, National Center for Advancing Translational Sciences (NCATS)
miR-21 FLuc – raises the signal of a miR-21 reporter. HeLa miR-21 FLuc reporter, luciferase, 48 h. Potency, µM (highest dose often 38.3 µM), without a hit: at the top dose reporter change, positive = more light. 340,000 tested, under 10 active. AID 2288; active = well fitted rising curve with a large enough effect; inconclusive = small, poorly fitted or top-dose-only effect; inactive = no such curve, though single readings can be large or run the other way;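 note: % of control where 0% means no effect; miR-21 action dims this reporter so a rising signal means less miR-21 action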
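HeLa miR-21-FLuc reporter line, endogenous miR-21; 2000 cells/well in DMEM/10% FBS; compound titration up to ~40uM final, 48 h, 37 degree Celsius; luciferase detection reagent, 15 min lysis, CCD luminescence.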
Numbers without * were called inactive; ? = inconclusive.

miR-21 FLuc	SMILES
4%	Cc1ccc2ncc(C(=O)NCc3ccccc3Cl)c(=O)n2c1
4%	CCN(C(=O)CSc1nc2ccccc2n1Cc1ccc(C(=O)OC)cc1)c1ccccc1
-1%	Cc1ccc(-n2c(=O)c3c4c(sc3n(Cc3ccccc3F)c2=O)CCC4)cc1C
-15%	CCCCNc1oc(-c2ccc(COc3ccc(OC)cc3)o2)nc1C#N
1%	COc1ccc(CCNC(=O)c2oc(=O)c3ccccc3c2-c2ccccc2)cc1OC
-4%	CC(=O)c1ccc(NC(=O)C2CCCN(S(=O)(=O)c3ccc(Br)s3)C2)cc1 (stereo not given)
-3%	CCN(C(=O)CN1C(=O)COc2ccc(S(=O)(=O)N3CCOCC3)cc21)c1cccc(C)c1
-5%	CCOc1ccccc1NC(=O)c1cc2c(=O)[nH]c3ccccc3c2s1
3%	Cc1ccccc1-c1nc(CS(=O)(=O)CC(=O)Nc2cccc(C(F)(F)F)c2)c(C)o1
-4%	COc1ccc(C(=O)c2oc3ccccc3c2NC(=O)c2cc(=O)c3ccc(C)cc3o2)cc1Cl
19%	CCOC(=O)c1c(NC(=O)c2ccc(S(=O)(=O)N3CCCC(C)C3)cc2)sc2c1CC(C)(C)NC2(C)C (stereo not given)
?	O=C(CCNS(=O)(=O)c1ccc2c(c1)CCN2C(=O)C1CC1)N1CCN(c2cccc(Cl)c2)CC1
0%	COc1ccc2c(c1)c1c(c(=O)n(-c3ccccc3C)c(=O)n1CC(=O)N1CCCC1)n2C
-6%	COc1cc2oc(=O)c(CC(=O)N3CCCCC3)c(C)c2cc1Cl
25%	N#Cc1cccc(NC(=O)C2CCN(c3nc(-c4ccc(Cl)cc4)no3)CC2)c1
-3%	CCCN(CCC)CCNC(=O)c1cc(Sc2ccc(Cl)cc2)nc2ccccc12
-1%	CCCCn1cc(S(=O)(=O)c2cc(C)ccc2C)c(=O)c2cc(F)c(F)cc21
17%	CCOc1ccc(NC(=O)CSc2oc(-c3cccs3)nc2S(=O)(=O)c2ccc(Cl)cc2)cc1
-7%	Cc1ccc(-n2c(=O)c3c4c(sc3n(Cc3cccc(Cl)c3)c2=O)CCC4)cc1C
3%	Cc1cc(C)cc(-n2c(SCC(=O)NCc3ccc(F)cc3)nc3c([nH]c4ccccc43)c2=O)c1
-4%	Cc1csc2nc(COC(=O)CNC(=O)c3ccccc3Cl)cc(=O)n12
-40%	CCOc1ccccc1NC(=O)C1CCN(S(=O)(=O)c2ccc3[nH]c(=O)ccc3c2)CC1
-6%	COc1ccc(N2CCN(c3nc4ccccc4n4c(C)nnc34)CC2)cc1
?	CCCCC(=O)OC1=C(C(=O)c2ccccc2)N(CCC)S(=O)(=O)c2ccccc21
1%	O=C(NCCN1CCN(c2cccc(Cl)c2)CC1)Nc1ccccc1C(F)(F)F
16%	Cc1ccc(CNC(=O)c2cc3c(=O)n(Cc4ccco4)ccc3nc2C)cc1
8%	COc1ccc(Cn2c(C(=O)O)c(CNC3CCC(C)CC3)c3ccc(C)cc32)cc1 (stereo not given)
?	Oc1cccc(-c2nc(-c3cccs3)c(-c3cccs3)[nH]2)c1
0%	COC(=O)CC1Oc2ccc(C)cc2-n2cc(-c3ccc(F)cc3)nc21 (stereo not given)
?	Cc1ccc(Cl)cc1N1CCN(C(=O)COc2cc(=O)n(C)c3ccccc23)CC1
2%	CCOc1ccccc1NC(=O)c1nc2nc(C)cc(C(F)F)n2n1
-9%	COc1ccc(NC(=O)C2CCCN2S(=O)(=O)c2ccc3c(c2)CCCC(=O)N3)cc1Cl (stereo not given)
-1%	COc1ccc(Cl)cc1NC(=O)N1CCN(Cc2cc(=O)n3nc(-c4ccccc4)sc3n2)CC1
2%	COc1ccc2cc(CNc3ccc(C)cc3)c(=O)n(CC(=O)Nc3ccc(C)cc3Cl)c2c1
-11%	CC(=O)NCCNc1nc2c(-c3ccc(C)cc3)nnn2c2ccccc12
3%	COc1cccc(N2CCN(C(=O)Cn3nc(C)n4c(cc5c(OC)cccc54)c3=O)CC2)c1
-17%	CC1CCN(C(=O)CSc2nc(-c3ccccc3)no2)CC1
3%	Cc1cccc(C(=O)NCc2nnc(SCC(=O)Nc3ccccc3F)n2-c2ccccc2)c1
-14%	Cc1cc(Cl)ccc1OCC(=O)N(Cc1ccc(N(C)C)cc1)C1CCS(=O)(=O)C1 (stereo not given)
-11%	CCN(CC)S(=O)(=O)c1ccc2c(c1)nc(CN(C)C(=O)Nc1ccc(F)cc1)n2C
5%	Cc1nnc(NCc2ccc(Cl)cc2)c2c1nnn2Cc1ccc(F)cc1
9%	COc1cc2c(cc1OC)C(COc1cccc(C(F)(F)F)c1)N(C(=O)c1ccc(S(=O)(=O)N3CCCC3)cc1)CC2 (stereo not given)
-4%	CCOc1ccc(CNC(=O)CN2N=C(c3ccccc3)CCC2=O)cc1OC
-18%	Cc1cccc(-c2noc(CN(C3CCCCC3)S(=O)(=O)c3ccc(F)cc3)n2)c1
?	CCCCCn1c(CCCNC(=O)c2ccccc2OC)nc2ccccc21
0%	Cc1cc(C(F)(F)F)n2nc(-c3ccc(Br)cc3)cc2n1
-14%	CCN(CC)CCN(C(=O)c1ccco1)c1nc2ccc(F)cc2s1
0%	Cc1cccc(CNC(=O)C2CCCN(S(=O)(=O)c3cn(C)cn3)C2)c1 (stereo not given)
17%	COc1ccc(-c2nc3scc(CCNS(=O)(=O)c4cccs4)n3n2)cc1
-3%	COc1ccc(-n2ncc(C(=O)N3CCc4ccccc4C3)c2C2CCN(C(=O)OC(C)(C)C)CC2)cc1

Part of the list above in a different format:
compound | miR-21 FLuc
Cc1csc2nc(COC(=O)CNC(=O)c3ccccc3Cl)cc(=O)n12 | -4%
COc1ccc(NC(=O)C2CCCN2S(=O)(=O)c2ccc3c(c2)CCCC(=O)N3)cc1Cl (stereo not given) | -9%
Oc1cccc(-c2nc(-c3cccs3)c(-c3cccs3)[nH]2)c1 | ?
CCOc1ccc(NC(=O)CSc2oc(-c3cccs3)nc2S(=O)(=O)c2ccc(Cl)cc2)cc1 | 17%
Cc1ccc(-n2c(=O)c3c4c(sc3n(Cc3cccc(Cl)c3)c2=O)CCC4)cc1C | -7%
COc1ccc2c(c1)c1c(c(=O)n(-c3ccccc3C)c(=O)n1CC(=O)N1CCCC1)n2C | 0%

Fetched one by one from the list above, 4 records:
miR-21 FLuc	SMILES
3%	COc1cccc(N2CCN(C(=O)Cn3nc(C)n4c(cc5c(OC)cccc54)c3=O)CC2)c1
-3%	CCCN(CCC)CCNC(=O)c1cc(Sc2ccc(Cl)cc2)nc2ccccc12
2%	COc1ccc2cc(CNc3ccc(C)cc3)c(=O)n(CC(=O)Nc3ccc(C)cc3Cl)c2c1
-5%	CCOc1ccccc1NC(=O)c1cc2c(=O)[nH]c3ccccc3c2s1

(continued)
miR-21 FLuc	SMILES
-20%	CC(=O)Nc1ccc(NC(=O)c2csnn2)cc1
12%	Cc1ccc(-c2onc(C)c2C)cc1S(=O)(=O)NC1CCC(C)CC1 (stereo not given)
-4%	O=C(CCCCn1c(=O)c2ccccc2n(Cc2cccc(Cl)c2)c1=O)NCc1ccc2c(c1)OCO2
29%	CCOc1ccc(NC(=O)c2ccc3c(=O)n(-c4ccc(OC)cc4OC)c(=S)[nH]c3c2)cc1
2%	CCOC(=O)c1cnc2c(ccc3ccccc32)c1Nc1ccc(OCC)cc1
-1%	CC(=O)c1ccc(NC(=O)CSc2nnc(NC(=O)NC3CCCCC3)s2)cc1
4%	CN1C(=O)Cc2cc(S(=O)(=O)CCC(=O)Nc3ccc(OC(F)(F)F)cc3)ccc21
-3%	Cc1c(Cl)ccc2sc(N3CCN(C(=O)C(C)C)CC3)nc12
2%	Cc1ccc(NC(=O)CSc2ncn[nH]2)cc1C
8%	Cc1nnc(SCC(=O)NCc2ccccc2Cl)c2nn(-c3ccccc3)c(C)c12
23%	CCOC(=O)c1cnc2ccc(Cl)cc2c1Nc1ccc(N2CCOCC2)cc1
26%	CN1C(=O)c2ccccc2Sc2ccc(NC(=O)N3CCN(c4ccccc4F)CC3)cc21
-2%	COc1ccccc1CCNC(=O)C1(c2cccs2)CCOCC1
28%	CCOC(=O)C1CCN(C(=O)C2CCN(S(=O)(=O)c3c(C)noc3/C=C/c3ccc(C)cc3)CC2)CC1
-16%	CCOc1ccccc1NC(=O)CSc1ncc(S(=O)(=O)c2ccc(C)c(C)c2)c(N)n1
24%	CCn1c(=O)cc(SCC(=O)NCc2ccccc2OC)c2ccccc21
1%	CCOc1cc(C(=O)Nc2cccc3cccnc23)cc(OCC)c1OCC
0%	COc1ccc(OC)c(-c2csc(-c3c(N)c(C(=O)c4ccc(Cl)cc4)n4ccccc34)n2)c1
8%	CC(C)c1ccc(NC(=O)c2ccc(=O)n(Cc3ccccc3)c2)cc1
-26%	CC(C)NC(=O)C1=CC(c2ccc3c(c2)OCO3)=NS(=O)(=O)N1C
28%	CCN(CC)S(=O)(=O)c1ccc2c(c1)N(CC(=O)NCCCN1CCN(c3cc(C)ccc3C)CC1)C(=O)CO2
-9%	CCN(c1ccccc1)S(=O)(=O)c1ccc(NC(=O)c2cc(=O)c3ccccc3o2)cc1
-15%	Cc1ccc(-c2nnn3c2nc(NCCc2ccc(Cl)cc2)c2ccccc23)cc1
-1%	COc1ccc(Cl)cc1NC(=O)N1CCC(CN2CCCCCC2)CC1
0%	Cc1cccc(-n2ncc(C(=O)NCc3ccccn3)c2C2CCN(C(=O)OC(C)(C)C)CC2)c1
0%	Cc1nn(-c2ccc3nnc(C)n3n2)c(C)c1CCC(=O)Nc1ccc(OC(F)(F)F)cc1
-2%	CCOc1ccc(CNC(=O)c2ccc3c(c2)nc2n3CCOC2)cc1OC
25%	COC(=O)c1ccc(OC)c(CN2C(=O)N(c3ccc(C(C)=O)cc3)S(=O)(=O)c3ccccc32)c1
1%	Cc1ccc2c(c1)c1c(c(=O)n(-c3ccccc3C)c(=O)n1Cc1cccc(F)c1)n2C
-1%	Cc1ccccc1-c1nc(SCC(=O)N(C)c2ccccc2)c2c(=O)n(C)c(=O)n(C)c2n1
-3%	CCc1ccccc1NC(=O)CN1C(=O)C2CCCN2c2ccc(S(=O)(=O)N(CC)CC)cc21 (stereo not given)
23%	COc1ccc(CCNC(=O)C(=O)Nc2ccc(C)c(C)c2)cc1OC
3%	CCC(CC)c1nn2c(=O)cc(COc3ccc(NC(=O)c4cccc(Cl)c4)cc3)nc2s1
15%	COc1cc(CNC(=O)c2ccc3c(c2)c(C)c(C)n3Cc2cccc(C)c2)cc(OC)c1OC
-9%	Cn1c(SCC(=O)Nc2ccccc2)nnc1-c1ccccc1
0%	CCC(=O)N1CCc2cc(CNS(=O)(=O)c3ccc(Cl)s3)ccc21
-2%	CCCCOc1cccc(C2c3c(oc4ccccc4c3=O)C(=O)N2c2ccccn2)c1 (stereo not given)
6%	CCCS(=O)(=O)c1c(S(=O)(=O)CCC)c2cc(CC)ccn2c1C(=O)c1ccc(Cl)cc1
?	CCCN(CCC)S(=O)(=O)c1ccc(C(=O)Nc2cccc(-c3nc4ccccc4[nH]3)c2)cc1
?	Cc1cccc(-n2c(-c3ccco3)nc3c(cnn3-c3ccc(F)cc3)c2=O)c1
7%	COc1ccc(S(=O)(=O)NCC(c2ccco2)S(=O)(=O)c2cccs2)cc1F (stereo not given)
27%	Cc1ccccc1Nc1c(-c2ccsc2)nc2c(C)cccn12
-6%	Cc1ccc(-n2nc3c(N4CCC(C(=O)N(C)Cc5ccccc5)CC4)nnc(C)c3c2C)cc1
-35%	Cc1ccc(-n2ncc3c(NCCC4=CCCCC4)ncnc32)cc1C
-28%	CCOc1ccccc1NC(=O)CSc1ccc2nc(-c3ccccc3)cn2n1
1%	CCCCOc1ccc(C(=O)Nc2cc(-c3ccc(C)cc3)no2)cc1
0%	CCOc1ccc(C(=O)N(Cc2sccc2C)C2CCS(=O)(=O)C2)cc1 (stereo not given)
13%	CSc1cccc(NC(=O)CN2C(=O)COc3ccc(Cl)cc32)c1
7%	CCCS(=O)(=O)c1nc(S(=O)(=O)c2ccc(C)cc2)c(NCCCOC(C)C)s1
5%	CCOc1ccc(CCNC(=O)c2cc(C)nc3c2c(C)nn3-c2cccc(F)c2)cc1

(continued)
miR-21 FLuc	SMILES
4%	COc1ccc(CCNC(=O)CCn2c(=O)c3ccccc3n(Cc3ccccc3)c2=O)cc1OC
15%	CCCN(c1ccc(C(C)C)cc1)S(=O)(=O)c1ccc2c(c1)oc(=O)n2CC(=O)OCC
7%	CC1CCN(S(=O)(=O)c2cc(C(=O)Nc3ccc(Br)cc3F)n(C)c2)CC1
21%	COc1cccc(-c2nc3c(C#N)c[nH]n3c2NC2CCCCC2)c1
1%	COc1cccc(CN2CCc3nc(Nc4ccc5c(c4)OCCO5)ncc3C2)c1
-6%	CCOc1ccc(CC(=O)NCCc2csc(-c3ccc(C)cc3)n2)cc1
7%	CCc1ccccc1NC(=O)c1cc(S(=O)(=O)N2CCc3ccccc32)ccc1F
-10%	COc1ccc(C2C(=O)N(C3CCC(C)CC3)CC(=O)N2CCc2ccccc2)cc1OC (stereo not given)
6%	CCOC(=O)c1c(C)[nH]c(C)c1S(=O)(=O)N1CCN(c2cc(Cl)ccc2C)CC1
-8%	COc1ccccc1-c1nc(SCC(=O)c2ccc(Cl)cc2)n[nH]1
-4%	O=C(NCc1ccccc1Cl)C1CCN(S(=O)(=O)Cc2ccccc2)CC1
23%	Cc1nc2ccn(Cc3cccs3)c(=O)c2cc1C(=O)NCc1ccc(Cl)cc1
-5%	Cc1cc(C)cc(OCCSc2nc(-c3ccc(C(C)(C)C)cc3)nc3cc(=O)[nH]n23)c1
3%	CCOc1ccc(Nc2cc(C(=O)NCc3ccccc3Cl)c3ccccc3n2)cc1
27%	CCOc1ccccc1Nc1nnc(-c2cc3cc(Cl)ccc3oc2=O)s1

The list is partial, so the mix of outcomes need not match the whole.
